From PubChem BioAssay
Six1-Eya2 blk: blocks human Six1 binding to Eya2; activity change, % (concentration not given with the values); AlphaScreen GST-Six1/His-Eya2 binding, biochemical; active compounds read low; control for the full effect not named in the record; Q15475+O00167; 360,000 tested, 0.56% active; in the data active = activity change below about -65%; inconclusive = about -30% to -65%; inactive = above about -30%; further: on the % scale 0 is the no-effect control and ±100 the full control effect
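Compounds are tested against tagged Six1 and Eya2 proteins bridged by glutathione donor and nickel acceptor beads; after a one-hour incubation at 37 °C without light, AlphaScreen emission is recorded.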
gsp antag: antagonizes gsp, the McCune-Albright syndrome mutation; gsp-mutant cells, cAMP HTRF, 30 min; control for the full effect not named in the record; Potency, µM (top dose mostly 76.9 µM), for inactives: top-dose activity change, negative = inhibition, hits mostly inhibitors; 340,000 tested, 0.4% active; AID 624288; active = falling curve of any shape with a large fitted effect; inconclusive = falling curve, mostly with a smaller effect; inactive = flat or rising curve; cell line not stated here;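 further: intracellular cAMP measured with PDE inhibitor Ro 20-1724 present during compound exposure; potency means the concentration at half of the fitted maximal effect; on the % scale 0 is the no-effect control and ±100 the full control effect; nearly all actives have a fitted effect of over 65% in size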
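Cells, 2000/well, grown 16–24 h in DMEM 10% FBS with 0.5 mg/ml G418, then compounds plus […] (300 uM addition stock), 30 min at 37C. cAMP read by HTRF (cAMP-d2 and anti-cAMP antibody-K in lysis buffer) after 30 min RT.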
D2 ag: activates the human D2 dopamine receptor; AID 624465; DiscoveRx PathHunter D2 beta-arrestin, luminescence, 90 min; 100% = 57 uM dopamine signal; activation, % (test concentration not listed); 360,000 tested, 0.084% active; P14416; in the data active = activation above about 40%; inconclusive = about 15% to 40%; inactive = below about 15%; further: compound concentration not given in the record; the text of the record calls up to 30% inactive
Target sequence (P14416 whole entry, looked up): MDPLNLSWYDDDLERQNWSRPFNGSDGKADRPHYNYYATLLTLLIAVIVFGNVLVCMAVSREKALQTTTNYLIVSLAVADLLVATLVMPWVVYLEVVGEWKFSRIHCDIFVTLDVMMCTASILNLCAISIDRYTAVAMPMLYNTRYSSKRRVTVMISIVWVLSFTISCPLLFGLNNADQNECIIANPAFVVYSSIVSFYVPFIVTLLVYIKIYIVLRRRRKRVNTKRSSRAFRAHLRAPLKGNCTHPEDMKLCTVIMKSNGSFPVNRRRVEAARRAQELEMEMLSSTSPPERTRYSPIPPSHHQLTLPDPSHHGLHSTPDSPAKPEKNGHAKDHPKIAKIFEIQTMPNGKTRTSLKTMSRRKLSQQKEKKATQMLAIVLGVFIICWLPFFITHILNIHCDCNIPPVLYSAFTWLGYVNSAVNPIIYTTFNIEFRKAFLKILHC
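Agonist mode: compounds alone added to overnight-plated D2 PathHunter cells for 90 min at 37 C, with 57 uM final dopamine (EC100) defining full response. Beta-arrestin recruitment detected by chemiluminescent reagent, read after 1 h at ambient temperature.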
gsp ag: agonists of gsp mutant (McCune-Albright syndrome) | 340,000 tested, 0.13% active | AID 624287 | gsp mutant cells, cAMP HTRF, 30 min; control for the full effect not named in the record | Potency, µM (doses to about 76.9 µM), for inactives: at the top dose activation (cAMP increase), most hits filed as activators; active = well fitted activation curve with a large enough effect; inconclusive = small, poorly fitted or top-dose-only effect, or another doubt; inactive = no such curve, though single readings can be large or run the other way; cell line not stated here;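 further: phosphodiesterase inhibitor Ro 20-1724 added with compounds to block cAMP breakdown; potency means the concentration at half of the fitted maximal effect; nearly all actives have a fitted effect of over 60% in size; about a fifth of the inactives were tested at one dose only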
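Cells stably selected in G418 were plated at 2000/well, grown 16-24 hr, then given compounds in DMSO with the PDE inhibitor […] (300 uM solution added) for 30 min at 37C; cAMP was read by HTRF.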
CtBP-E1A blk: CtBP/E1A binding inhibition; AlphaScreen GST-E1A/His-CtBP binding, 1536-well; active compounds read low; control for the full effect not named in the record; activity change, % (concentration not given with the values); 340,000 tested, 0.49% active; AID 651724; in the data active means activity change below about -65%; inconclusive means about -30% to -65%; inactive means above about -30%; further: on the % scale 0 is the no-effect control and ±100 the full control effect
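Steps: dispense buffer (Tris pH 8.0, NaCl 300 mM, TCEP 1 mM, BSA, Tween 20); add 5X protein mix (GST-E1A, His-CtBP, 125 nM each); pin 23 nL compound; 2 h at 37 °C, dark; add 5X beads (50 ug/mL); 1 h; read.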
D2 potentiator: positive allosteric modulators of human D2 dopamine receptor. P14416. DiscoveRx D2 beta-arrestin cells, luminescence, 90 min; 100% = 57 uM dopamine signal. potentiation, % (no concentration beside the values). 360,000 tested, 0.23% active; active = potentiation of 50% or more; inconclusive = 30% to 50%; inactive = 30% or less;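 further: compound concentration not given in the record; tested on top of an EC20 dose of dopamine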
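PathHunter D2 cells, attached overnight at 37 deg C, received compound in DMSO plus dopamine at EC20 (50 nM final) for 90 min at 37 deg C. Beta-arrestin recruitment was read as luminescence after 1 h with detection reagent at ambient temperature.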
An asterisk follows results filed as active; ? = inconclusive; . = not tested or not shown; [ ] = dose if it differs, or a comment.

SMILES	Six1-Eya2 blk	gsp antag	D2 ag	gsp ag	CtBP-E1A blk	D2 potentiator
CCOC(=O)c1oc2nc(CC(C)C)c3c(c2c1N)CCCC3	-12.3	?	-6.3	?	1.1	-2.9
Cc1ccc(NC(=O)c2ccc(OC(=O)CCN3C(=O)c4ccccc4C3=O)cc2)cc1	2.2	-4.1%	-1.8	?	2.2	-9.4
CN1CCN(CCc2nc3cc(NC(=O)COc4ccc([N+](=O)[O-])cc4)ccc3n2C)CC1	-1.5	15.8%	-6.5	-14.9%	-1.9	-20.2
O=C(c1cc(-c2ccc(Cl)cc2)on1)N1CCCCCC1	3.0	13.0%	6.3	-15.4%[15.4 µM]	6.3	1.0
Cn1c(=O)c2c(nc(NCCNC(=O)c3ccco3)n2Cc2ccc(F)cc2)n(C)c1=O	1.8	4.3%	-3.0	3.7%[15.4 µM]	9.4	-8.3
COc1ccc(C2=NCN(c3ccc(C)cc3)C(=S)N2)cc1	-5.7	-16.8%	-1.6	0.0%	-8.0	9.0
COc1ccc(C(=O)C2CCCN(Cc3ccc(NC(C)=O)cc3)C2)cc1OC (stereo not given)	-0.7	-10.4%	1.0	3.7%	.	-11.8
COCC(C)NC(=O)CSc1nnc(-c2cccc(S(=O)(=O)N3CCCCC3)c2)o1 (stereo not given)	0.6	11.2µM*	-3.6	10.0%[15.4 µM]	-4.9	-1.8
Cc1cccc(NC(=O)c2ccc(COc3cccc4ccccc34)o2)n1	-3.4	-19.3%	0.6	10.5%[15.4 µM]	-6.7	-0.5
COc1ccc(/C=c2\sc3nc(-c4ccccc4)c(-c4ccccc4)n3c2=O)cc1OC	2.0	-9.8%	-2.0	?	-1.6	6.0
CCC(=O)Nc1sc(C(=O)Nc2ccccc2OC)c(C)c1C(=O)OC	5.6	2.9%	0.1	-39.9%	-1.2	-0.6
COc1ccc(NS(=O)(=O)c2ccc(N3CCOCC3)c(NC(=O)c3ccccc3Cl)c2)cc1	0.1	21.7%	2.7	-10.8%	-3.4	5.4
Cc1cc(NC(=O)COC(=O)C2CC(=O)N(c3ccc(C)c(Cl)c3)C2)no1 (stereo not given)	?	2.1%	-21.9	-6.5%[15.4 µM]	-3.0	-8.3
COc1cc(-c2cc(C(=O)N3CCN(c4ccccn4)CC3)c3ccccc3n2)cc(OC)c1OC	-0.9	4.0%	-2.7	21.1%	-8.2	-11.3
COc1cc(NC(=O)COC(=O)CNC(=O)c2ccc(C)cc2)c(C)cc1[N+](=O)[O-]	-4.6	5.3%	-4.9	1.1%	.	-5.2
O=C(NCCC1=CCCCC1)C1CCN(S(=O)(=O)c2cccc3cccnc23)CC1	0.2	-4.1%	-2.5	-18.8%	0.0	-11.0
N#CCC(=O)Nc1ccc(C(=O)OCC(=O)NNC(=O)c2ccc(Cl)cc2)cc1	?	1.7%	-5.0	1.0%[15.4 µM]	1.9	-2.8
COc1ccc(C(=O)NN/C=C/C(=O)c2ccc(Br)cc2)cc1	3.5	.	-9.9	-32.2%[inhibitor]	-21.4	-28.7
CCOC(=O)C1(C)CCN1C(=O)c1cccc(OC)c1 (stereo not given)	2.5	.	-3.1	.	6.1	0.7
O=C(NN=C1C2CC3CC(C2)CC1C3)c1ccccc1O	-5.9	2.9%	-4.3	2.1%	?	-13.8
Cc1ccc(/C=C/C(=O)Nc2cccc(S(=O)(=O)N3CCOCC3)c2)o1	-6.3	-19.2%	-1.3	-30.6%[inhibitor]	0.0	-15.5
CCc1ccc(NC(=O)CCc2nc3ccccc3[nH]2)cc1	9.8	0.0%	-3.3	-22.2%[15.4 µM]	4.0	-10.1
COc1cccc(/C=N/Nc2ncccc2[N+](=O)[O-])c1OC	-16.7	2.9%	-1.0	?	-7.7	-1.5
Cn1c(SCC(=O)N2CC(=O)Nc3ccccc32)nnc1C(F)(F)F	3.6	12.0%	-4.4	1.5%	5.4	-1.9
COc1ccc(CNC(=O)c2cc3cccc(O)c3oc2=N)cc1	-4.9	-13.6%	5.9	?	-7.4	6.1
COc1ccc(CN2CCNC(=O)C2CC(=O)NC2CCCC2)c(C)c1C (stereo not given)	2.4	11.7%	-2.4	?	3.5	-5.5
Cc1nc(S(=O)(=O)c2ccc(Cl)cc2)c(NCc2ccccc2)o1	-11.6	2.0%	-4.1	7.9%[15.4 µM]	7.1	-13.5
FC(F)(F)c1cnc(N2CCC(=NOCc3ccc(Cl)cc3)CC2)c(Cl)c1	35.8	-16.7%	-1.2	-3.9%	29.3	14.0
CC(=O)Nc1ccc(SCC(=O)N(CCC#N)c2cc(C)cc(C)c2)cc1	-5.5	-13.4%	-1.7	8.0%	-3.2	-50.0
COCCn1c(SCC(=O)NCC2CCCO2)nc2c(c1=O)SC(C)C2 (stereo not given)	-0.3	7.5%	-6.1	-2.1%	3.2	-9.0
CCCNC(=O)c1ccc(Cl)c(Cl)c1	6.5	11.0%	-1.8	23.7%	3.7	9.6
Cc1cnccc1CN(C)Cc1cn(C)nc1-c1ccc(Oc2ccccc2)cc1	-4.4	?	3.5	23.0%[15.4 µM]	22.0	-20.4
O=C(CCOc1ccccc1)NNC(=O)c1ccccc1	1.4	10.6%	-5.2	-1.5%	5.0	-3.4
CCOc1cc(C(=O)OC(C(=O)NC(=O)NC)c2ccccc2)ccc1OCC(=O)N1CCOCC1 (stereo not given)	-3.9	3.2%	-1.9	-53.4%[inhibitor]	2.2	-6.3
CCOc1ccccc1NC(=O)Cn1nc(-c2ccco2)ccc1=O	-1.2	-10.4%	-2.3	-5.4%[15.4 µM]	-4.0	-4.9
Cc1ccccc1OCCC(=O)Nc1ccc(F)c(Cl)c1	4.2	-10.0%	0.2	1.1%	10.6	-21.9
Cc1c(C(=O)Nc2ccc(-c3nnc4n3CCCCC4)cc2)oc2ccc(Br)cc12	1.7	-23.7%	0.7	-27.7%	-5.1	-5.2
CCOc1ccc(Br)cc1S(=O)(=O)NC(=O)c1ccccc1	0.7	0.8%	5.2	4.5%	.	-10.5
CCN(CC)C(=O)c1cccc(-c2csc(C(O)c3ccc(OC)cc3)n2)c1 (stereo not given)	-5.5	.	6.3	.	5.8	7.8
O=S(=O)(NCCCO)c1ccc2c(c1)Cc1cc(S(=O)(=O)NCCCO)ccc1-2	1.2	3.1%	-2.5	-2.6%	4.2	-9.7
O=S(=O)(c1ccc(F)cc1)N1CCN(S(=O)(=O)c2cc(F)ccc2F)CC1	5.2	9.4%	-3.5	-0.4%[15.4 µM]	5.1	-0.5
CC(=O)Nc1nnc(COc2ccc(Cl)cc2)s1	0.0	-6.2%	-3.8	3.2%[15.4 µM]	-0.8	-5.3
Cc1cccc(N2CC(C(=O)O)CC2=O)c1C (stereo not given)	3.8	9.7%	-0.1	24.3%[15.4 µM]	7.9	-2.0
O=C(Nc1ccccc1)C1=C[C@H](C2CCCCC2)C[C@H](OCCCCO)O1	10.9	-3.4%	0.2	14.7%	-10.7	-9.2
CCOC(=O)Cn1c(-c2cccnc2)nc(-c2ccccc2)c1-c1ccccc1	-2.2	-18.6%	1.5	4.8%[15.4 µM]	-7.0	-9.5
Cc1cccc(N2Cc3ccc(Br)cc3C2)c1	-11.1	-22.0%	-0.3	-0.9%[15.4 µM]	-0.7	-1.0
CN(C(=O)CSC1=Nc2ccccc2C2=NC(c3ccccc3)C(=O)N12)C1CCCCC1 (stereo not given)	1.1	-29.0%	-6.6	2.8%	-13.5	-19.3
CCCN1CCCC[C@H]1C(=O)Nc1c(C)cccc1C	8.0	-2.6%	-6.2	.	2.1	-5.9
CCc1cc(C(=O)N(CCCOC)c2c(N)n(Cc3ccccc3)c(=O)[nH]c2=O)sc1C	-6.0	-1.0%	-1.3	33.3%[15.4 µM]	5.9	-66.3
Cc1ccc(CCC(=O)Nc2ccccc2C(=O)O)o1	4.4	-1.1%	2.0	9.0%	.	4.9
O=C(COC(=O)c1ccc(F)cc1)NCc1ccc(F)cc1	-0.8	5.4%	-1.2	-100.1%[inhibitor]	2.6	-0.5
COc1ccc(N2CCN(C(=O)C34CCC(C)(C(=O)C3)C4(C)C)CC2)cc1 (stereo not given)	-2.7	2.1%	-0.5	-29.5%	-0.8	-5.0
CCOC(=O)Cc1csc(NC(=O)CSc2nnc(-c3ccc(NS(=O)(=O)CC)cc3)o2)n1	-0.8	0.0%	0.7	7.1%	4.3	-6.9
CCC(CC)C(=O)NCCc1cc2ccc(OC)cc2[nH]c1=O	2.8	-5.0%	-4.9	-26.7%	5.3	13.4
Cn1c(=O)[nH]c(=O)c2c1nc(N1CCOCC1)n2CCSc1nc2ccccc2[nH]1	20.1	18.4%	-3.4	-24.8%	0.0	-3.2
Cc1ccc(NC(=O)CSCc2ccco2)cc1	-0.7	-0.9%	-5.6	-57.4%[inhibitor]	-1.7	-8.9
COc1ccc(C(NC(=O)CN2C(=O)NC3(CCc4ccccc43)C2=O)c2ccccc2)cc1 (stereo not given)	10.2	-4.1%	1.3	?	.	4.8
COc1ccc(C(=O)N2CCN(Cc3ccccc3[N+](=O)[O-])CC2)cc1	1.2	1.3%	-6.0	-1.1%	0.4	-2.8
CSCc1c(C(=O)NCCc2ccccn2)oc2ccccc12	-4.5	0.1%	0.4	-7.5%[15.4 µM]	-6.3	-0.5
COc1ccc(-c2nsc3c(N4CCCC4)ncnc23)cc1	-0.2	-19.5%	-1.5	-5.9%	7.9	9.9

Structural class, the compounds so far with an NH in an aromatic ring
SMILES	Six1-Eya2 blk	gsp antag	D2 ag	gsp ag	CtBP-E1A blk	D2 potentiator
CCc1ccc(NC(=O)CCc2nc3ccccc3[nH]2)cc1	9.8	0.0%	-3.3	-22.2%[15.4 µM]	4.0	-10.1
CCc1cc(C(=O)N(CCCOC)c2c(N)n(Cc3ccccc3)c(=O)[nH]c2=O)sc1C	-6.0	-1.0%	-1.3	33.3%[15.4 µM]	5.9	-66.3
CCC(CC)C(=O)NCCc1cc2ccc(OC)cc2[nH]c1=O	2.8	-5.0%	-4.9	-26.7%	5.3	13.4
Cn1c(=O)[nH]c(=O)c2c1nc(N1CCOCC1)n2CCSc1nc2ccccc2[nH]1	20.1	18.4%	-3.4	-24.8%	0.0	-3.2

Continuation.
SMILES	Six1-Eya2 blk	gsp antag	D2 ag	gsp ag	CtBP-E1A blk	D2 potentiator
C/C(=N\NC(=O)CCc1ccc(S(=O)(=O)N2CCOCC2)cc1)c1ccccc1Cl	-13.8	3.8%	-3.0	-12.0%[15.4 µM]	8.6	-6.3
Cc1cc(C(=O)CSc2nnc(C3CC3)n2C2CC2)c(C)n1C(C)C	-5.5	4.5%	2.1	-15.5%	-0.3	1.6
O=C1CN(S(=O)(=O)c2ccccc2C(F)(F)F)CCN1	-2.2	4.3%	-3.3	11.0%[15.4 µM]	0.7	-6.8
O=C(O)c1ccc(COc2ccccc2/C=C2\NC(=O)N(Cc3ccccc3F)C2=O)cc1	-5.2	-27.8%	-1.4	6.6%[15.4 µM]	0.8	-1.4
Cc1cc(=O)oc2cc(OCC(=O)NCCCN3CCCC3=O)c(Cl)cc12	-1.9	10.5%	-0.8	?	-4.8	-6.8
